Compound activity: PubChem, ICCB-Longwood Screening Facility, Harvard Medical School
KSHV LANA nucl – inhibitors of KSHV LANA binding to nucleosomes. AID 720717. actives 0.3% (n = 51,000). z-score (concentration not given with the values). FITC-LANA1-23 / chicken nucleosome fluorescence polarization; hits give low values;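 active means both repeat wells score below -2 in polarization z-score versus plate sample wells, excluding overly bright wells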;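 further: 100 nL library stock added to about 30 µL; numbers are from one replicate; some results filed as inactive read as strong as hits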
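System – purified chicken nucleosomes with FITC-labelled LANA N-terminal peptide (1-23) · Amount – 240 nM purified chicken nucleosomes (480 nM peptide binding sites), final · Also added – 50 nM FITC-LANA1-23 probe · Medium – TEN-BT buffer, pH 7.5 · Incubation – compound with peptide–nucleosome mix 10–45 min at room temperature · Detection – fluorescence polarization, ex 480 nm, em 535 nm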
BasE inh – BasE siderophore biosynthesis inhibition. purified BasE, fluorescence polarization binding displacement. inhibition, % (test concentration not listed). actives 0.1% (n = 84,000). AID 485350;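 active means both replicates above 25% with normal brightness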;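 further: 0% = negative plate control signal and 100% = positive plate control signal; stock transfer was 100 nL into about 30 µL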
The depositor's hits bear a star; . = no result given; & = joins results of further samples. This is a subset. The share of hits here may be higher or lower than overall.

Values run as follows: BasE inh	KSHV LANA nucl
1. O=C(CC1OC(=O)c2ccccc21)NC1CC1 (configuration not stated)
  -0.1	.
2. CCCCC/C=C/CCC(=O)N[C@H]1[C@H](Oc2c3cc4cc2Oc2ccc(cc2Cl)[C@@H](O[C@@H]2O[C@H](CO)[C@@H](O)[C@H](O)[C@H]2NC(C)=O)[C@@H]2NC(=O)[C@H](NC(=O)[C@@H]4NC(=O)[C@H]4NC(=O)C(Cc5ccc(c(Cl)c5)O3)NC(=O)[C@H](N)c3ccc(O)c(c3)Oc3cc(O)cc4c3)c3ccc(O)c(c3)-c3c(OC4O[C@H](CO)[C@@H](O)[C@H](O)[C@@H]4O)cc(O)cc3[C@@H](C(=O)O)NC2=O)O[C@H](CO)[C@@H](O)[C@@H]1O (some centres not stated)
  .	0.96
3. CN1CCC(N(C)S(=O)(=O)c2ccc(C(=O)NN)cc2)CC1
  1.1	.
4. CN(C)S(=O)(=O)c1ccc(SCC(=O)NN2C(=O)NC3(CCCCC3)C2=O)nc1
  1.3	.
5. Cc1ccc(CSc2ncn(-c3ccccc3)n2)cc1
  -2.8	-0.15
6. O=C(CSc1ccccc1)Nc1ccc(NC(=O)c2ccco2)cc1
  3.1	0.095
7. Cc1ccc2nc(-c3nc4ccccc4s3)sc2c1
  2.8	-0.54
8. CCC1(c2ccccc2)NC(=O)N(C)C1=O (configuration not stated)
  -1.0	-0.56&-1.2
9. OC(CNc1nc(-c2cccnc2)nc2ccccc12)c1ccccc1 (configuration not stated)
  -2.5	.
10. COc1ccc(-c2cc(C(N)=O)c3ccccc3n2)cc1
  -2.9	.
11. O=C(NCC(c1ccco1)N1CCCCC1)c1ccc2c(=O)n3c(nc2c1)CCCCC3 (configuration not stated)
  0.8	.
12. CN(CC(=O)N1CCN(c2ccccn2)CC1)S(=O)(=O)c1ccccc1
  1.8	-0.47
13. NC(=O)C12CC3CC(CC(C3)C1)C2
  1.9	.
14. Cc1ccsc1-c1nc(CSCC(=O)NCc2cccnc2)c(C)o1
  13	-0.24
15. Cc1ccc(Cc2ccc(Cl)nn2)cc1
  .	-1
16. COc1ccc(CCNC(=O)Cc2noc3ccccc23)c(OC)c1
  -3.1	2.1
17. COc1cc(NS(=O)(=O)c2c(C)oc3c(F)c(F)c(F)c(F)c23)cc(OC)c1OC
  -0.7	.
18. CC(OC(=O)c1cccn1C)C(=O)Nc1ccc(S(=O)(=O)N2CCCC2)cc1 (configuration not stated)
  -0.7	.
19. CC(C)c1nnc(NC(=O)CC(NC(=O)c2ccccc2)c2ccccc2)s1 (configuration not stated)
  3.2	.
20. Cc1c(C(=O)OCc2cc(=O)n3ccsc3n2)sc2nc3n(c(=O)c12)CCC3
  2.8	.
21. O=C(CN(C(=O)c1csnn1)c1cccc(F)c1)NC1CCCC1
  -0.1	0.036
22. Cc1cccc(-c2nc(CCNC(=O)c3cccs3)cs2)c1
  1.2	0.72
23. Cc1ccc(NC2SC(=O)NC2=O)c(C)c1 (configuration not stated)
  -2.2	1.5
24. CCCCn1nc(C(=O)Nc2ccccc2C(C)C)ccc1=O
  -0.9	.
25. CC(C)(C)C(=O)/C(C#N)=C/c1cccs1
  0.5	0.46
26. Clc1nc(Cl)nc(NCc2ccccc2)n1
  2.6	-0.27
27. CC(C)(C)NC(=O)Nc1cnccc1C(F)(F)F
  3.6	.
28. NC(=O)N/N=C/c1ccc(-c2ccc(Cl)cc2)o1
  1.9	-0.56
29. O=C(NCc1ccccc1)NCc1cccn1Cc1ccccc1
  0.6	-0.89
30. Cc1ccccc1N1C(=O)CC(Nc2ccc3c(c2)OCO3)C1=O (configuration not stated)
  8.1	0.12
31. COc1ccc(/C(C#N)=C/C(=O)O)cc1
  .	-0.92
32. COCCN1Cc2cccc(C(=O)NCCc3ccccc3)c2C1=O
  0.6	-0.65
33. CCOC(=O)N1CCN(c2nc(-c3ccccc3)no2)CC1
  0.8	-0.043
34. Cn1c(CCNC(=O)c2cccs2)nnc1SCC(=O)N1CCN(c2ccccc2)CC1
  4.5	0.15
35. CCOc1ccc2c(c1)S/C(=C1\Oc3ccccc3OC1=O)N2C
  1.8	0.72
36. COc1ccc(N2C(=O)CCC(C(=O)Nc3ccccn3)C2c2ccc(OC)c(OC)c2)cc1 (configuration not stated)
  -0.1	0.21
37. Cn1cnc(S(=O)(=O)Nc2ccc3c(c2)C(=O)OC3)c1
  -1.2	0.51
38. CC(NS(=O)(=O)c1ccc2c(c1)CCC2)c1ccc(-n2ccnc2)cc1 (configuration not stated)
  -1.1	.
39. O=c1c(-c2ccc(I)cc2)[n+]([O-])c2ccccc2n1O
  1.1	-1
40. COc1ccc(-c2cc(OC(=O)c3ccco3)cc3sc(=O)oc23)cc1
  2.7	0.58
41. O=C(Cn1ncc2c(=O)oc3ccccc3c21)Nc1ccc2c(c1)OCCO2
  0.4	0.032
42. Cc1cc2c(cc1C)NC(C(F)(F)F)=CC(c1cccs1)=N2
  -0.9	.
43. CCN(CC)C(=O)C1CCCN(Cc2ccccc2)C1 (configuration not stated)
  0.9	-0.74
44. CC(C)(C)c1ccc(C(=O)N2CCCCCC2)cc1
  -1.1	1.1
45. O=C(Cn1[nH]c(=O)c2ccccc2c1=O)NCc1ccncc1
  1.5	.

Entries of single compounds, looked up by structure. Values in the order: BasE inh, KSHV LANA nucl
`COc1ccc(N2C(=O)CCC(C(=O)Nc3ccccn3)C2c2ccc(OC)c(OC)c2)cc1` (configuration not stated) is listed as -0.1, 0.21
`O=C(Cn1[nH]c(=O)c2ccccc2c1=O)NCc1ccncc1` is listed as 1.5, .
`COc1ccc(/C(C#N)=C/C(=O)O)cc1` is listed as ., -0.92

Other records.
Values run as follows: BasE inh	KSHV LANA nucl
46. C=CCSc1nc(N)c(C(=O)OCC)cc1C#N
  1.7	.
47. O=C(OCc1cc(=O)n2ccsc2n1)c1ccc(NS(=O)(=O)c2ccc3c(c2)OCCO3)cc1
  -0.2	.
48. Cc1occc1C(=O)N/N=C/c1ccc(C(C)(C)C)cc1
  -4.0	0.11
49. Cc1n[nH]c(C)c1CCc1nc2c3ccccc3nc(=S)n2[nH]1
  2.9	0.33
50. CCOC(Cn1c(CC)nc2ccccc21)OCC
  1.2	0.79
51. COc1ccc(/C=C/C(=O)NCc2ccccn2)cc1OC
  5.1	0.26
52. CC1CC(C)CN(S(=O)(=O)c2cccc(C(=O)Oc3ccc4c(c3)OCO4)c2)C1 (configuration not stated)
  2.1	.
53. Cc1ncc(CO)c(/C=N/N=C/c2c(O)ccc3ccccc23)c1O
  2.4	0.01
54. O=C(COc1ccc2c(-c3ccccc3)cc(=O)oc2c1)c1ccccc1
  1.4	.
55. O=S(=O)(NCCNC/C=C/c1ccc(Br)cc1)c1cccc2cnccc12
  -6.6	-0.36
56. Cn1c(=O)c2sccc2n2c(CCC(=O)Nc3ccccc3)nnc12
  -0.5	0.64
57. COc1ccccc1C1CCN(S(=O)(=O)c2ccccc2Br)CC1
  3.3	.
58. COC(=O)c1ccc(Sc2ccc(C)cc2)c(N)c1
  1.2	-0.094
59. COc1cc(-c2nnc(NC(=O)CCS(=O)(=O)c3ccc(C)cc3)o2)cc(OC)c1OC
  0.1	0.56
60. C=CCN(CC=C)C(=O)COc1ncnc2sccc12
  0.1	.
61. CCOC(=O)c1ccc2[nH]c3c(c2c1)CCCC3NC=O (configuration not stated)
  1.2	.
62. CCOC(=O)C1CCN(CC(=O)Nc2cccc3cccnc23)CC1
  2.5	0.4
63. CC(OC(=O)C1CCN(c2ccc(C(F)(F)F)cn2)CC1)C(=O)Nc1cccc(C#N)c1 (configuration not stated)
  0.1	.
64. Cn1c(C(=O)N2CCCC(C(=O)N3CCc4ccccc4C3)C2)cc2sccc21 (configuration not stated)
  -3.0	0.67
65. Cc1oc2ccc(O)c(Cl)c2c1C(=O)O
  4.4	-0.64
66. CCOC(=O)c1oc2ccc(Br)cc2c1COC(=O)C1CC2CCCC(C1)C2=O (configuration not stated)
  5.6	.
67. Cc1ccc(NC(=S)NC(=O)CC2CC(C)(C)OC2=O)cc1 (configuration not stated)
  0.0	.
68. COc1cc(Br)c(CNC(C)(C)CO)cc1OC
  2.3	0.4
69. Cc1c(C)c(C)c(CSc2ccccc2N)c(C)c1C
  -2.0	.
70. O=NN(CCCl)C(=O)NCCCl
  .	-0.75
71. CN(C)CCCNc1oc(-c2ccccc2Cl)nc1S(=O)(=O)c1ccc(F)cc1
  4.0	-0.25
72. O=C(Cc1cccc(F)c1)NC1CCOc2ccccc21 (configuration not stated)
  1.5	.
73. O=C(Nc1cccc(C(F)(F)F)c1)N1CCN(C2c3ccccc3-c3ccccc32)CC1
  .	-0.85
74. CCCn1nc(C(=O)NCc2ccccc2)c2ccccc2c1=O
  2.7	.
75. CCCCCc1ccc(CC(=O)O)cc1
  0.5	-0.027
76. Nc1nc(C(F)(F)F)cc(=O)n1N
  0.3	-0.49
77. COc1ccccc1CNC(=O)c1ccccc1OC
  -0.6	-0.32
78. CCC1(C)NC(=O)N(/N=C/c2c(O)ccc3ccccc23)C1=O (configuration not stated)
  -3.6	.
79. Cc1[nH]n(-c2ccccc2)c(=S)c1/C=N/c1nc(-c2ccccc2)cs1
  -0.4	.
80. O=C1Nc2ccccc2N(O)N1c1cc(-c2ccccc2)[nH]n1
  1.1	-0.87
81. CCOC(=O)c1nc(C)nc(Sc2n[nH]c(-c3ccccc3)n2)c1C
  -0.1	-1.6
82. Cc1nn2c(C)c(C(=O)Nc3ccccc3)cnc2c1C#N
  0.6	0.23
83. Cn1c(=O)n(C)c2cc(/C=C3\C(=O)NC(=O)N(c4ccc(Cl)cc4)C3=O)ccc21
  1.9	-0.15
84. CCOCCC(=O)N1CCN(C)CC1
  -1.2	-0.079
85. COCCOC(=O)c1sc(=S)n(CCOC)c1N
  16	.
86. Cn1c(CN)nnc1SCc1ccccc1
  1.4	0.24
87. Cc1c(C(=O)N2CCCCCC2)oc2ccccc12
  -0.2	-1.1
88. O=C(O)CN(CCc1ccccc1)S(=O)(=O)c1ccccc1
  2.2	.
89. O=C(CCNc1ccc(Cc2ccncc2)cc1)c1ccco1
  9.6	-0.33
90. c1ccc2sc(NC3=NCN(CC4CCCO4)CN3)nc2c1 (configuration not stated)
  -2.2	0.017
91. O=C(O)c1ccccc1C(=O)Nc1ccc(S(=O)(=O)Nc2nccs2)cc1
  -0.9&1.5	-0.18&0.57&-0.26
92. C=C(C(=O)O)C(CC(=O)O)C(=O)O (configuration not stated)
  -3.0	0.62
93. N#Cc1c(NC2CCCCC2)nc(-c2ccco2)c2c1CCCC2
  -0.3	-0.6
94. CCOc1ccc(C(NC(=O)c2ccco2)c2ccc(OC)c(OC)c2)cc1 (configuration not stated)
  -2.0	1
95. Cc1ccc(C)c(NC(=O)CN(C)S(=O)(=O)c2ccc3c(c2)CCCC(=O)N3)c1
  -0.5	.
96. O=C(c1ccccc1)c1ccc(C(=O)N2CCN(c3ccc(O)cc3)CC2)cc1
  -1.5	.
97. COc1ccc(-c2csc(NCCCN(C)C)n2)cc1
  -3.7	0.2
98. COc1cc2c(cc1OC)C(C(=O)N1CC(C)CC(C)C1)C(c1cccnc1)N(C)C2=O (configuration not stated)
  -1.2	0.11
99. CCc1ccc(NC(=O)NCc2c(C)nn(C)c2C)cc1
  -1.5	0.28
100. Cc1nnsc1-c1onc(C)c1C(=O)O/N=C(\N)c1cc(C(F)(F)F)cc(C(F)(F)F)c1
  -0.4	0.75
101. N#Cc1c(-c2cccs2)oc(-n2cccc2)c1-c1cccs1
  -6.5	0.92
102. C=CCC(CC=C)(C(=O)O)c1ccccc1
  4.7	-0.03
103. O=C(CN1CCN(S(=O)(=O)/C=C/c2ccccc2)CC1)NC(=O)NCc1ccccc1
  -2.6	.
104. CN(CCc1ccccn1)c1nc(C(F)(F)F)nc2ccccc12
  1.2	.
105. CCc1cc2c(SCC(=O)c3ccc(Br)cc3)ncnc2s1
  1.5	.

Given with bars between the fields: part of the list above
# | Structure | BasE inh | KSHV LANA nucl
94 | CCOc1ccc(C(NC(=O)c2ccco2)c2ccc(OC)c(OC)c2)cc1 (configuration not stated) | -2.0 | 1
95 | Cc1ccc(C)c(NC(=O)CN(C)S(=O)(=O)c2ccc3c(c2)CCCC(=O)N3)c1 | -0.5 | .
96 | O=C(c1ccccc1)c1ccc(C(=O)N2CCN(c3ccc(O)cc3)CC2)cc1 | -1.5 | .
97 | COc1ccc(-c2csc(NCCCN(C)C)n2)cc1 | -3.7 | 0.2
98 | COc1cc2c(cc1OC)C(C(=O)N1CC(C)CC(C)C1)C(c1cccnc1)N(C)C2=O (configuration not stated) | -1.2 | 0.11
99 | CCc1ccc(NC(=O)NCc2c(C)nn(C)c2C)cc1 | -1.5 | 0.28

New compounds follow:
Values run as follows: BasE inh	KSHV LANA nucl
106. O=C1c2cccc3cccc(c23)N1CN1CCN(c2ccccc2)CC1
  -0.3	.
107. CCOC(=O)COc1cccc2c(=O)n(CC(=O)N3CCCCC3)ccc12
  0.0	-0.41
108. CC(C)N(Cc1ccccc1)S(=O)(=O)c1ccc(C#N)cc1
  -0.6	.
109. Cc1cc(C)cc(NC(=O)CSCCn2c(C)csc2=O)c1
  4.1	.
110. CCOC(=O)CN1C(=O)COc2ccc(C)cc21
  0.7	-0.12
111. O=C(CC1CCCCC1)Nc1ccccn1
  0.3	-0.25
112. Cc1c(O)c2ccccc2n(C)c1=O
  -0.1	0.25
113. N#Cc1ccc(CNC(=O)N2CCOCC2)cc1
  .	-0.57
114. COCCNc1nc(-c2cc(C)n(-c3ccccc3F)c2C)cs1
  2.8	.
115. CNC(=O)c1n[nH]c(=O)c2ccccc12
  1.1	.
